Source: PubChem BioAssay (Center for Chemical Genomics, University of Michigan)
HIV TAR-Tat: HIV-1 TAR-Tat binding disruption. AID 1259389. 0.6% of 100,000 active. HIV-1 TAR RNA, Tat peptide displacement FRET; active compounds read high. z-score (no concentration beside the values);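 note: score is relative to mean and SD of negative controls; some compounds called inactive have numbers as strong as hits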
CDC25B CDK2 inh: human CDC25B-CDK2/CyclinA binding inhibition; z-score (no concentration beside the values); P30305+P24941; AID 1259370; HTRF CDC25B-CDK2/CyclinA binding, anti-His/anti-Flag; active compounds read high; 0.72% of 94,000 active;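 note: score is relative to mean and SD of negative controls; strong numbers were not always called active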
Active calls of the source: *; / = not tested or not shown.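 Rule for the calls: active = z-score from 3 up in half or more of its runs; inactive = the rest.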

Results follow in this order: HIV TAR-Tat | CDC25B CDK2 inh
CCCOC(=O)c1sc2nc(C)c(C)c(C)c2c1N
    1.8 | -1
CCc1nnc(NC(=O)Cc2noc3ccccc23)s1
    3.1 | -1.2
COC(=O)C1C(=O)CC(C)(O)C(C(=O)OC)C1c1ccc(F)cc1 (stereo not drawn)
    1 | 0.82
Cc1cc(-c2nc(C(=O)NN3CCCCC3)cs2)no1
    / | -2.5
CCSCCOC(=O)C1=C(C)NC2=C(C(=O)C(C(=O)OC)C(C)C2)C1c1ccccc1 (stereo not drawn)
    0.78 | 1.2
CC1(C)Cc2c(sc3[nH]c(=O)n4ncnc4c23)CO1
    / | -1.4
CCCn1c(=O)[nH]c(=O)c2[nH]cnc21
    / | -1
O=C(O)c1sc2c(cnc3ccccc32)c1-c1ccc(Cl)cc1
    0.21 | -0.29
Cc1ccc(C)c(N2C(=O)C3C4c5ccccc5C(c5ccccc54)C3C2=O)c1 (stereo not drawn)
    0.56 | -1.5
Cc1cc(C)nc(NS(=O)(=O)c2ccc(NC(=O)Nc3ccsc3)cc2)n1
    / | -0.36

3 entries out of the list, arranged by formula weight, smallest number first:
Results follow in this order: HIV TAR-Tat | CDC25B CDK2 inh
CC1(C)Cc2c(sc3[nH]c(=O)n4ncnc4c23)CO1
    / | -1.4
O=C(O)c1sc2c(cnc3ccccc32)c1-c1ccc(Cl)cc1
    0.21 | -0.29
Cc1cc(C)nc(NS(=O)(=O)c2ccc(NC(=O)Nc3ccsc3)cc2)n1
    / | -0.36

(further entries)
Results follow in this order: HIV TAR-Tat | CDC25B CDK2 inh
N#C/C(=C\c1ccccn1)C(N)=O
    / | -0.58
BrC1=C(Br)c2cccc3cccc1c23
    / | -0.44
Nc1ccc2nc(SCC(=O)NCCOc3ccc(Cl)cc3)sc2c1
    / | -2.7
CC(C)(C)C1CCc2nc(NC(=O)COc3ccc(Cl)cc3)sc2C1 (stereo not drawn)
    0.42 | -0.53
CN1C(C(=O)N2CCc3ccccc3C2)=CC(c2cccs2)=NS1(=O)=O
    0.69 | -1.7
Cc1cccc(CSc2ncc(CO)n2Cc2ccc(F)cc2)c1
    1 | /
COc1ccccc1-c1cc(C(F)(F)F)n2ncc(C(=O)OCCc3ccccn3)c2n1
    1 | 2.6
Cc1c(C(N)=O)cc([N+](=O)[O-])cc1[N+](=O)[O-]
    1.1 | /
CNC(C)[C@@H]1CC[C@@H](N)[C@@H](OC2[C@@H](N)C[C@@H](N)[C@H](OC3OC[C@](C)(O)[C@H](NC)[C@H]3O)[C@H]2O)O1 (stereo partly drawn)
    0.19 | /
CCOC(=O)c1ccc(-n2c(C)c3c(OC)cccc(=O)c3c2C)cc1
    -2.4 | 2.4

(more compounds)
Results follow in this order: HIV TAR-Tat | CDC25B CDK2 inh
O=C1c2ccccc2C(Nc2ccc(F)c(Cl)c2)N1c1ccccn1 (stereo not drawn)
    1.1 | 0.73
O=C(CN(C1=NC2CS(=O)(=O)CC2S1)c1ccccc1)Nc1ccc(Br)cc1 (stereo not drawn)
    1.4 | -4
Cc1ccc(NC(=O)CSc2nc(-c3ccco3)nc3cc(=O)[nH]n23)cc1C
    -1.2 | /
CSc1cccc(NC(=O)C2CCCN(S(=O)(=O)c3ccc4[nH]c(=O)oc4c3)C2)c1 (stereo not drawn)
    -1 | /
CN(C)CCNC(=O)Cn1cnc2c(nc3n2CCCCC3)c1=O
    0.04 | /
Cc1nn(C)c2c1c(-c1ccccc1)cc(=O)n2Cc1cc(=O)n2ccccc2n1
    0.2 | /
Clc1cccc(Nc2nc3ccccc3c3nncn23)c1
    0.9 | -0.96
Cc1nn(S(=O)(=O)c2ccc(OC(C)C)cc2)c(C)c1S(=O)(=O)N(C)c1ccccc1
    0.79 | /
O=C(NCc1noc2ccccc12)Nc1nccs1
    -1.6 | /
CCc1ccc(-c2csc3nc4ccccc4n23)cc1
    -0.55 | -1.7

The closing 2 entries of the part before are carried over, then new ones follow.
Results follow in this order: HIV TAR-Tat | CDC25B CDK2 inh
O=C(NCc1noc2ccccc12)Nc1nccs1
    -1.6 | /
CCc1ccc(-c2csc3nc4ccccc4n23)cc1
    -0.55 | -1.7
COC(=O)c1c(N)cccc1F
    / | -0.65
Cc1cc(C)c(-c2c(N3CCN(c4ccccc4)CC3)c(=O)c2=O)cc1C
    -0.46 | /
Brc1cccc(-c2cn3nc(C4CC4)sc3n2)c1
    1.3 | -1.4
CCc1nnc2sc(-c3ccncc3)nn12
    -0.64 | -0.05
c1ccc2c(OCc3nc4ccccc4[nH]3)cccc2c1
    -1.7 | 6.6
CC(C)Cc1nc2c3ccccc3[nH]c(=O)n2n1
    -0.5 | -0.29
Cc1ccc(C2C3=C(CC(C)(C)CC3=O)Nc3nc(C(F)(F)F)nn32)cc1 (stereo not drawn)
    -0.5 | 0.31
O=C(Nc1nncs1)Oc1ccccc1
    1.1 | -1.2
O=S(=O)(c1ccc(Cl)cc1)c1cnc2ccccc2c1N1CCCCC1
    -0.13 | 2.9
CN(C)C(=O)Nc1ccc(Cl)c(Cl)c1
    1 | /

Next results
Results follow in this order: HIV TAR-Tat | CDC25B CDK2 inh
Cn1c(=O)c2c(c3ccccc31)OC(=O)CC2c1cccnc1 (stereo not drawn)
    1.3 | -1.4
COc1ccc(CN2CCN(c3cc(C)c4ccc(O)cc4n3)CC2)c(OC)c1OC
    / | -2.4
COc1ccc(C(=O)N2N=C(c3ccc(Br)cc3)CC2(O)C(F)(F)F)cc1 (stereo not drawn)
    / | -0.89
CC1(C)CC2(C)OC(=O)c3ccccc3N2C(=S)N1 (stereo not drawn)
    / | -1.7
C#CCn1c(C2CC(=O)N(c3ccc(Cl)cc3)C2)nc2ccccc21 (stereo not drawn)
    1.6 | -1.9
COCc1cc(C)nc2sc3c(=O)n(-c4ccccc4Br)nnc3c12
    -0.26 | -0.71
CC(C)c1nnc(NC(=O)c2nn(-c3ccc(F)cc3)ccc2=O)s1
    1.1 | -0.74
CC1CCCN(C(=O)CCS(=O)(=O)c2ccc3c(c2)n(C)c(=O)c(=O)n3C)C1 (stereo not drawn)
    2 | -0.25
O=C(Cn1c(=O)oc2cc(S(=O)(=O)NCc3ccccc3)ccc21)N1CCc2ccccc21
    1.5 | 0.8
Cn1ncc2c(N3CCOCC3)nc(NCc3ccco3)nc21
    1.5 | /

Carrying on:
SMILES	HIV TAR-Tat	CDC25B CDK2 inh
O=C(Nc1ccccc1/C(=N/O)c1ccccc1)c1cccc([N+](=O)[O-])c1	/	-0.89
CCN(CC)C(C)CN1c2ccccc2Sc2ccccc21 (stereo not drawn)	0.97	-1.5
CC1Cc2ccccc2N1S(=O)(=O)c1ccc(-c2cnc(C3CC3)o2)cc1 (stereo not drawn)	0.63	/
Cc1ccc(NS(=O)(=O)c2ccc(-c3cc(C)no3)s2)c(Br)c1	-0.31	/
Cc1ccn2c(=O)c(C(=O)NCc3cccs3)c(O)nc2c1	-0.24	-2.1
Cn1cccc1Cc1nnc(SCC(=O)Nc2ccc3c(c2)OCCO3)n1-c1ccccc1	-2.8	-0.82
Cn1cccc1Cc1nnc(SCC(N)=O)n1C	1.2	0.46
COC(=O)C1=C(C)NC2=C(C(=O)CCC2)C1c1ccc(OC)cc1 (stereo not drawn)	3.2	0.44
O=C(NCc1ccco1)C1CCCN(c2nc3ccsc3c(=O)s2)C1 (stereo not drawn)	/	0.5
c1ccc(-n2c(COCc3nc4cccnc4n3-c3ccccc3)nc3cccnc32)cc1	0.94	/
CCCS(=O)(=O)N1CCCc2ccc(NS(=O)(=O)c3ccc(F)cc3)cc21	1.3	/
O=C(CSc1nc2ncccc2o1)Nc1ccccc1F	-0.08	/
O=c1ccc(-c2ccc(S(=O)(=O)Nc3ccccc3)s2)n[nH]1	0.73	/
CCOC(=O)c1c(NC(=O)CC)sc2c1CC(C(C)C)OC2 (stereo not drawn)	0.77	-1.1
CCOC(=O)N1CCN(C(=O)C(C)(C)Oc2ccc(Cl)cc2)CC1	0.47	-1.1
Cc1ccc2c(c1)N(C(=O)NC1CCCCC1)C(C)(C)CC2C (stereo not drawn)	0.68	-0.45
CC(C(=O)Nc1ccccn1)N1Cc2ccccc2C1=O (stereo not drawn)	1.5	/
O=C(Cn1c(=O)oc2cc(S(=O)(=O)N3CCCC3)ccc21)Nc1ccc(Cl)cc1F	0.82	1.9
CCn1c(C)c(C)c2cc(C(=O)O)ccc21	0	0.19
CC(=O)OCc1c(C)c(C)c(C)c(C)c1C	/	-0.03
Cc1ccc(C2CC(=O)C3=C(C2)Nc2ccccc2NC3c2coc3ccc(C)cc3c2=O)cc1 (stereo not drawn)	/	-1.1
Cc1ccc(-c2nc3ccc(N)cc3[nH]2)cc1	-7.6	-2
COc1ccc(-c2cc(OC(=O)c3cccc(C)c3)c3c(C)oc(C)c3c(=O)c2)cc1	-6.7	-0.18
CN(C(=O)c1nn(C)c2c1COc1ccccc1-2)c1ccccc1F	2.3	-0.5
Cc1nc(N2CCCC2)cc(N2CCN(C(=O)Nc3ccccc3Cl)CC2)n1	-0.08	-0.51

Grouped by structure: the compounds so far with bromine.
SMILES	HIV TAR-Tat	CDC25B CDK2 inh
BrC1=C(Br)c2cccc3cccc1c23	/	-0.44
O=C(CN(C1=NC2CS(=O)(=O)CC2S1)c1ccccc1)Nc1ccc(Br)cc1 (stereo not drawn)	1.4	-4
Brc1cccc(-c2cn3nc(C4CC4)sc3n2)c1	1.3	-1.4
COc1ccc(C(=O)N2N=C(c3ccc(Br)cc3)CC2(O)C(F)(F)F)cc1 (stereo not drawn)	/	-0.89
COCc1cc(C)nc2sc3c(=O)n(-c4ccccc4Br)nnc3c12	-0.26	-0.71
Cc1ccc(NS(=O)(=O)c2ccc(-c3cc(C)no3)s2)c(Br)c1	-0.31	/

Other structures
SMILES	HIV TAR-Tat	CDC25B CDK2 inh
Cc1ccc(CSc2nc(=O)c3c(n2C)NC(=O)CC3c2ccc3c(c2)OCCO3)cc1 (stereo not drawn)	0.66	1.2
CC1(C)CC(=O)C2=C(C1)Nc1ccccc1N(S(C)(=O)=O)C2c1ccccc1 (stereo not drawn)	-0.01	/
O=C(Cn1ncc2c3ccccc3n(Cc3ccccc3)c2c1=O)NC1CC1	0.53	-0.84
Cc1nc(-c2ccc3c(c2)OCC3)sc1C(=O)Nc1ccc2c(c1)OCCO2	/	-0.88
CCOC(=O)C1=C(C)Nc2nc(SCC(C)C)nn2C1c1cccs1 (stereo not drawn)	0.07	-2.3
CSc1nc(N)nc(-c2ccccn2)n1	/	-1.2
N#Cc1ccc(-c2ccc3c(c2)OCCO3)[nH]c1=S	/	-1.7
Cc1cc(S(=O)(=O)[C@H]2CS(=O)(=O)C[C@@H]2NCc2ccncc2)ccc1F	1.8	-1.9
Cc1cccnc1-n1c(C)c(C)c2c1ncn1nc(CSc3nc4ccccc4o3)nc21	0.67	-1.6
CSCCC(NS(=O)(=O)c1ccc2c(c1)oc(=O)n2C)C(=O)Nc1cc(C)cc(C)c1 (stereo not drawn)	-0.24	0.45
C=CCN1C(=O)c2[nH]nc(-c3c(C)cc(C)cc3O)c2C1c1ccc(F)cc1 (stereo not drawn)	0.05	0.49
O=S(=O)(Nc1ncn(Cc2ccc(Cl)cc2)n1)c1ccc2c(c1)CCCC2	0.19	-2.2
CC1(C)CC(=O)C2=C(C1)Nc1ccccc1N(C(=O)c1ccccc1)C2c1ccc2c(c1)OCO2 (stereo not drawn)	-0.15	1.2
O=C(O)CSc1nnc2c(n1)[nH]c1ccccc12	2.1	-1.4
O=C(O)c1ccc(Nc2nc(N3CCOCC3)ccc2[N+](=O)[O-])cc1	-0.13	-2.5
CC(C)C(=O)N(C)C(c1cccs1)c1c[nH]c2ccccc12 (stereo not drawn)	0.13	1.5
Fc1ccc(CN2CCc3nc(Nc4ccc5c(c4)OCCO5)ncc3C2)c(F)c1	1.1	/
CC(C)(C)NC(=O)c1sccc1C(=O)O	1.8	/
Cc1ccccc1C1CC(=O)NC2=C1C(=O)CC(c1ccc(F)cc1)C2 (stereo not drawn)	0.01	0.36
COc1ccccc1NC1CCCCC1NS(=O)(=O)c1ccccc1 (stereo not drawn)	1.6	1.6
Cc1ccc(CN(C(=O)COc2ccccc2)C2CCS(=O)(=O)C2)o1 (stereo not drawn)	1.9	0.85
O=S(=O)(c1cccc2nsnc12)N1CCC(CN2CCCCC2)CC1	0.21	/
N#C/C(=C\c1ccccn1)c1cccc(C(F)(F)F)c1	/	-0.79
CCn1c(CN2CCCC2)nc2ccccc21	2.4	-1.1
CCC(C(=O)NCCN1CCN(CC)CC1)N1C(=O)CCn2nc(C)cc21 (stereo not drawn)	0.4	/

Additional compounds follow:
SMILES	HIV TAR-Tat	CDC25B CDK2 inh
CC1(C)COC(=O)C1OC(=O)c1ccccc1C(=O)O (stereo not drawn)	/	0.34
COc1ccc(-c2cc(OC(=O)c3ccccc3C)c3c(C)oc(C)c3c(=O)c2)cc1	-3.8	2.9
CSc1ccc(CNc2cc(-n3nc(C)cc3C)ncn2)cc1	0.56	/
Nc1nc2c3ccccc3nc(C3CC3)n2n1	-0.79	-0.82
CC1=C(C(=O)Nc2cccc(F)c2)C(c2ccsc2)C2=C(CC(C)(C)CC2=O)N1 (stereo not drawn)	2	-0.83
COc1ccc(-n2c(C)nc3c(cnn3-c3ccc(F)cc3)c2=O)cc1	/	-1
COCCCNC(=O)N1CCCC1c1ccco1 (stereo not drawn)	0.47	-1.8
Cc1ccc(-c2onc3ccc(C(=O)O)cc23)cc1	2.9	-0.87
O=C(CCc1nc2cccnc2n1Cc1cccs1)Nc1ccc2c(c1)OCCO2	-3.9	-0.4
Cc1ccc(C)c(S(=O)(=O)NC(CC(C)C)C(=O)O)c1 (stereo not drawn)	0.77	-0.43
CC(=O)Nc1nc(CC(C)C)cc(-c2ccco2)c1C#N	-5.8	0.14
C#CC(C)(C)NC(=O)NC(C)(C)C	/	-1.5
Nc1nc(NCCCN2CCOCC2)nc(Nc2ccccc2)c1[N+](=O)[O-]	2.1	/
